From PubChem
GALR2 ag: activates the human galanin receptor 2. hit rate 0.48% among 140,000. GALR2-expressing cells, agonist activation read-out. AID 803. activation, %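 (tested at 5 µM)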. O43603;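 active = above mean plus 3 SD of all compounds, about 5% in these data, not always enough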;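 note: 0% = vehicle buffer wells and 100% = reference agonist at full effect; tested in CHO reporter cells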
INS promoter inh: TRM-6 insulin promoter activity inhibition; TRM-6 cells (human fetal islet line), insulin promoter-eGFP reporter, imaging; reporter expression induced with tamoxifen; inhibition, % at 2 µM; hit rate 0.9% among 130,000;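 active = inhibition above the mean plus 3 SD, with well images judged a real hit on visual review, cut at about 60% in these data, passing the limit was not always enough; inconclusive = inhibition over the cutoff but images rejected on review; inactive = inhibition not above the cutoff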
HSV replic up: increases HSV replication in cells | HSV replication augmentation in cells, fold increase | AID 1956 | hit rate 0.005% among 220,000 | maximum fold increase;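 active = peak rise of 1.5-fold or more in the series; inconclusive = self-fluorescent or not available for retest; tested in PC3 cells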;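 note: first round at 10 µM; read as green reporter fluorescence; hits show the peak of a series up to 25 µM; 1 = signal of infected wells without compound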
PKD1 inh: PKD1 (human) kinase inhibition. hit rate 0.056% among 200,000. inhibition, %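 (about 10 µM by stock and volumes)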. PKD1 kinase fluorescence polarization assay. AID 797;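 active = inhibition of 50% or more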;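 note: controls were vehicle for no effect and a reference inhibitor for full effect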
Target sequence (Q15139 whole entry, looked up): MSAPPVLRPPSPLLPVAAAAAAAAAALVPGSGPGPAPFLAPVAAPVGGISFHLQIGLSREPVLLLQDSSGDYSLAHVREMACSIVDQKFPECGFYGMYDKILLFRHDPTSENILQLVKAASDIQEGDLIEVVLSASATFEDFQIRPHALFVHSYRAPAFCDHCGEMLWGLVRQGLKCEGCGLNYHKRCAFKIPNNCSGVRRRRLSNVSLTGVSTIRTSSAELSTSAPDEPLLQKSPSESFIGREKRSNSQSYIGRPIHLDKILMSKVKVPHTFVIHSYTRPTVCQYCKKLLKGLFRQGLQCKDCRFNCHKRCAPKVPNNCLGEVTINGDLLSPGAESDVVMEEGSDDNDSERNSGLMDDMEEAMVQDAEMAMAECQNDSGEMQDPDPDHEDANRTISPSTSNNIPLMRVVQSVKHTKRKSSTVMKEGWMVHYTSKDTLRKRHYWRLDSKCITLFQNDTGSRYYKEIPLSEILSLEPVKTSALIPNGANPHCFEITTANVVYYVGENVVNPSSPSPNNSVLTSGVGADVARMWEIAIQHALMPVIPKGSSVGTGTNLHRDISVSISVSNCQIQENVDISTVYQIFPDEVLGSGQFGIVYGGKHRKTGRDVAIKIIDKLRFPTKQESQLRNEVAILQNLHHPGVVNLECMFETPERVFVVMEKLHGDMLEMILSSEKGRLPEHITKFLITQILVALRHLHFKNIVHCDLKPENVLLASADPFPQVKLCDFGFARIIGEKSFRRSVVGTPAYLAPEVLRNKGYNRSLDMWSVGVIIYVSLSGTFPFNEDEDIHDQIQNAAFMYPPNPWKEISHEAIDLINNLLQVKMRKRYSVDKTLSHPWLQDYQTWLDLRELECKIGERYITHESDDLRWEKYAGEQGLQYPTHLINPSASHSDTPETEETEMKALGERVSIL
RGS16-Gao HTS: modulates binding between human RGS16 and Galphao; O15492+P09471; bead-based flow cytometry RGS16-Galphao binding, fluorescence; actives lie on both sides; binding response (% of control), % at 10 µM; hit rate 0.38% among 220,000; AID 1441;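 active = below 25% or above 175%, edge rows of some plates excepted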;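 note: Galphao activated by GDP with aluminum fluoride before binding; 100% = wells without compound and 0% = beads without RGS; some results beyond the cut were filed as inactive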
INS promoter inh cell count: recorded beside INS promoter inh, whose call it bears; normalized cell count, %; measured here: cell count, toxicity; reference of the scale not given here;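 cells exposed to compound for 48 h; stained nuclei by imaging scaled within each plate; lower means fewer cells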
HSV replic up primary fold: also measured in HSV replic up; calls as there; fold increase; compound at 10 µM; measured here: primary screen fold increase 10 uM; tested in PC3 cells;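 GFP signal in the first replicate; 1 = infected wells without compound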
* marks the source's active call; other numbers are inactive results; i = inactive; ? = inconclusive; · = no result given; & = joins results of further samples.

SMILES	GALR2 ag	INS promoter inh	INS promoter inh cell count	HSV replic up	HSV replic up primary fold	PKD1 inh	RGS16-Gao HTS
O=C(CCN1CCOCC1)N1CCc2c([nH]c3ccccc23)C1c1cccc(Cl)c1 (centres undefined)	·	-30	49	i	0.89	3	101
COc1ccc(/C=C/C(=O)C2CC2)cc1Cn1nc(C)c([N+](=O)[O-])c1C	·	·	·	i	0.89	0	88
Cc1ccc(Cn2ccc(NC(=O)c3nn(C)cc3[N+](=O)[O-])n2)cc1	0.1	·	·	i	0.43	1	110
Cn1c(CNC(=O)c2cccs2)nnc1SCC(=O)Nc1ccccc1	0.5	-21	113	i	0.97	8	104
COc1cc(/C=N/NC(=O)C(N)=O)ccc1OCC(=O)N1C(C)CCCC1C (centres undefined)	·	·	·	i	0.87	-1	104
Cc1ccc(Nc2nc(N)nc(CSc3nccn3C)n2)cc1	0.8	47	103	i	0.99	5	104
O=C(/C=C/c1ccc(Cl)c([N+](=O)[O-])c1)Nc1cccnc1	-2.2	9	103	i	1	-5	99
CC1CN(CCOc2ccccc2[N+](=O)[O-])CC(C)O1 (centres undefined)	·	14	52	i	1.1	15	103
N#CC1=C(N)N=C(SCc2cccc3ccccc23)C(C(N)=O)C12CCCCC2 (centres undefined)	-2.4	-43	82	i	0.75	0	119
COc1ccc(CCNC(=O)Cn2cnc3c(cnn3-c3ccccc3Cl)c2=O)cc1OC	-3.1	·	·	i	1.1	-1	54
c1ccc(-c2cc3c(N4CCCC4)ncnc3s2)cc1	·	·	·	i	0.87	-4	99
Cc1ccc(NS(=O)(=O)c2ccc(NC(=O)c3cccc(NC(=O)C(C)C)c3)cc2)cc1	-1.2	19	149	i	0.78	-1	70
CCN=C1SC(CC(=O)NCCc2ccc(OC)cc2)C(=O)N1CC (centres undefined)	-1.0	13	210	i	0.95	-4	102
Nn1cnc2scc(-c3cccs3)c2c1=O	·	10	109	i	1.1	2	104
CC(=O)NNC(=O)c1nc(-c2ccccc2)c(C)o1	·	·	·	i	0.89	·	82
CC(C)(O)C(=O)NN(C(=O)c1ccccc1)c1ccc2ccccc2c1	-1.5	-34	125	i	0.76	-2	103
CCn1c(=O)c(C(=O)Nc2ncccc2C)c(O)c2ccccc21	·	·	·	i	0.96	2	97
CCCNC(=O)Cn1nc([N+](=O)[O-])c([N+](=O)[O-])c1C	0.3	45	106	i	0.95	-9	103
N/C(CSc1ccc(Cl)cc1)=N\NC(=O)c1ccncc1	·	·	·	i	0.96	-8	102
O=[N+]([O-])c1cccc(CSc2nnc(Cc3ccccc3)n2-c2ccc(F)cc2)c1	-1.1	-64	102	i	0.88	2	102
Nc1cc(=O)[nH]c(SCc2ccc(Cl)cc2)n1	-1.6	19	88	i	0.89	0	104
COc1ccc(CNc2nc(SCc3cc(=O)n4cc(Cl)ccc4n3)nc3ccccc23)cc1	0.0	·	·	i	0.92	-2	77
O=C(COC(=O)COc1ccccc1)Nc1ccccc1OC(F)F	-1.7	-31	154	i	0.96	-22	98
CCOC(=O)c1[nH]c2cc3c(cc2c1NC(=O)CN1CCC(C)CC1)OCO3	-1.1	·	·	·	·	15	99
Cc1cc(C)nc(SC2CCCCC2O)n1 (centres undefined)	-3.9	39	94	i	0.92	5	100
N=c1sccn1CC(=O)Nc1cc(S(=O)(=O)N2CCCC2)ccc1Cl	·	-20	140	i	0.97	-1	104
COc1cccc(CC(NC(C)=O)C(=O)NC2CCN(c3c4c(nc5ncnn35)CCC4)CC2)c1OC (centres undefined)	·	5	123	i	0.94	9	105
Cc1ccccc1CSc1nc2n(n1)C(c1cccs1)C1=C(CCCC1=O)N2 (centres undefined)	0.9	0	147	i	0.88	0	107
N#C/C(=C/c1cn(-c2ccccc2)nc1-c1cccc(S(=O)(=O)N2CCOCC2)c1)C(=O)NCc1ccco1	2.4	26	71	i	0.88	0	94
NC(=O)C1=C[C@@H](c2csc3ccccc23)C[C@@H](OCc2ccc(CO)cc2)O1	·	·	·	i	0.78	·	104
O=C(CCCCCN1C(=O)c2ccccc2C1=O)Nc1ccc(F)cc1	-2.7	-148	91	i	0.85	0	117
CCc1c(O)c(-c2ccccc2)c(=O)n(-c2ccccn2)c1-c1ccccc1	·	·	·	i	1	·	99
COc1cc(C2/C(=C(/O)c3ccc(F)cc3)C(=O)C(=O)N2CCCC(=O)O)ccc1O (centres undefined)	-3.5	57	73	i	0.98	25	106
CCC(=O)Nc1cccc(-c2nc3ccccc3o2)c1	-1.8	-300	83	i	0.77	-6	95
CCS(=O)(=O)C1=NN2C(=N)/C(=C\c3ccc(SCc4ccco4)o3)C(=O)N=C2S1	·	11	104	?	·	-2	101
O=C(c1ccc([N+](=O)[O-])cc1)N(c1ccccn1)c1ccccn1	·	-13	127	i	0.99	10	94
O=C(Cc1ccccc1)NC(=S)Nc1ccc2oc(-c3ccccc3F)nc2c1	0.5	23	98	i	1	5	102
Cc1ccc(S(=O)(=O)Cn2nnnc2C(C)N2CCN(C(=O)c3ccco3)CC2)cc1 (centres undefined)	0.4	-62	133	i	0.97	0	95
CCCCCOC(=O)Nc1nnc(CCCCC)s1	-0.9	·	·	i	1.1	-2	87
Cc1[nH]c(=O)[nH]c(=O)c1CSCC(=O)OCC(=O)Nc1ccccn1	·	·	·	i	1	·	99

Among those listed so far, these contain an NH in an aromatic ring:
SMILES	GALR2 ag	INS promoter inh	INS promoter inh cell count	HSV replic up	HSV replic up primary fold	PKD1 inh	RGS16-Gao HTS
O=C(CCN1CCOCC1)N1CCc2c([nH]c3ccccc23)C1c1cccc(Cl)c1 (centres undefined)	·	-30	49	i	0.89	3	101
Nc1cc(=O)[nH]c(SCc2ccc(Cl)cc2)n1	-1.6	19	88	i	0.89	0	104
CCOC(=O)c1[nH]c2cc3c(cc2c1NC(=O)CN1CCC(C)CC1)OCO3	-1.1	·	·	·	·	15	99
Cc1[nH]c(=O)[nH]c(=O)c1CSCC(=O)OCC(=O)Nc1ccccn1	·	·	·	i	1	·	99

Retrieved by compound from the list above (4):
SMILES	GALR2 ag	INS promoter inh	INS promoter inh cell count	HSV replic up	HSV replic up primary fold	PKD1 inh	RGS16-Gao HTS
Nc1cc(=O)[nH]c(SCc2ccc(Cl)cc2)n1	-1.6	19	88	i	0.89	0	104
O=C(CCN1CCOCC1)N1CCc2c([nH]c3ccccc23)C1c1cccc(Cl)c1 (centres undefined)	·	-30	49	i	0.89	3	101
O=C(Cc1ccccc1)NC(=S)Nc1ccc2oc(-c3ccccc3F)nc2c1	0.5	23	98	i	1	5	102
N#C/C(=C/c1cn(-c2ccccc2)nc1-c1cccc(S(=O)(=O)N2CCOCC2)c1)C(=O)NCc1ccco1	2.4	26	71	i	0.88	0	94

Later entries
SMILES	GALR2 ag	INS promoter inh	INS promoter inh cell count	HSV replic up	HSV replic up primary fold	PKD1 inh	RGS16-Gao HTS
COCc1nnc(NC(=O)CC(C)C)s1	-3.0	-488	30	i	1	0	104
O=C(NCc1ccccc1)C(c1ccco1)N(C(=O)c1cnccn1)c1ccc(F)cc1 (centres undefined)	-2.0	-42	87	·	·	-3	101
NC(=O)C(CC(=O)O)NC(=O)[C@@H]1CCOc2c(I)cc([N+](=O)[O-])cc2C(=O)N[C@@H](CO)C(=O)N[C@@H](Cc2ccc(O)cc2)C(=O)N1 (some centres undefined)	-3.5	45	136	i	0.8	4	104
CCOC(=O)c1ccc(NC(=O)C2=C(C)Nc3nc(CCCO)nn3C2c2ccc(OC)cc2)cc1 (centres undefined)	0.5	44	110	i	0.72	2	102&103
CC(=O)Oc1c(C)cc(O)c2ccccc12	-1.8	35	71	·	·	5	94
COc1ccc(C2=NOC(C(=O)Nc3cc(C)on3)C2)cc1 (centres undefined)	-1.1	·	·	i	0.94	-6	102
Cc1nc(C)c(CC(=O)N/N=C/c2ccc(O)cc2)c(=O)[nH]1	-0.7	37	119	i	1	1	84
Cc1ccc(Cn2nnc3c(=O)[nH]c(C4CCN(C(=O)Cc5cccs5)CC4)nc32)cc1	-1.2	-27	92	i	0.83	-11	·
COC(=O)C(NC(=O)c1ccco1)(Nc1ccc(Br)cn1)C(F)(F)F (centres undefined)	-0.6	·	·	i	0.99	-5	107
COc1cccc2[nH]c3c(N4CC(C)CC(C)C4)ncnc3c12 (centres undefined)	-1.0	-11	162	·	·	-6	106
Cc1cc(C)cc(OCC(O)CN2CCN(Cc3ccc4c(c3)OCO4)CC2)c1 (centres undefined)	·	·	·	i	1	-4	97
COc1ccc(C(NC(=O)c2cccnc2)c2cc(Cl)c3cccnc3c2O)cc1OC (centres undefined)	-4.8	-48	127	i	0.73	-10	95
CCN(C(=O)COC(=O)c1cc(-c2ccc(C)o2)nc2ccccc12)C1CCS(=O)(=O)C1 (centres undefined)	·	·	·	i	1.1	-7	100
COc1cccc2c1nc(C)c1cc(C)oc12	-1.1	·	·	i	0.82	5	108
O=C(O)c1ccccc1C(=O)N1CCN(c2ccccc2)CC1	-0.4	14	60	i	0.98	-6	104
COc1cc([N+](=O)[O-])ccc1NC(=O)CSc1n[nH]c(C(C)C)n1	·	·	·	i	1	0	95
COc1ccc(C(=O)Nc2oc(-c3ccccc3)c(-c3ccccc3)c2C#N)cc1	0.1	-50	109	i	1	-2	101
COC(=O)CSCC(=O)Nc1cc2c(cc1C(C)=O)OCO2	-2.1	·	·	i	0.9	-2	112
CC(C)N(Cc1nc(-c2ccccc2)no1)C(=O)c1ccc(Cl)cc1	-4.0	·	·	i	0.98	-7	101
O=C(Nc1ccccc1)Nc1ccc(Cl)c(S(=O)(=O)N2CCOCC2)c1	·	·	·	i	1	0	115
Cc1cc(C)nc(SCc2csc(N)n2)n1	-0.1	25	71	i	0.9	-13	101
CCOC(=O)C1(c2ccccc2)NC(c2ccc(N(C)C)cc2)C2C(=O)N(C)C(=O)C21 (centres undefined)	-0.5	-63	49	·	·	-3	·
COC(=O)C(C(=O)Nc1cc(C)on1)C1CCCCCC1 (centres undefined)	-0.7	60	76	i	0.86	-4	103
Cc1ccc(CSCCC(=O)NCCc2ccc(Cl)cc2)cc1	-0.3	33	109	i	1	-8	212
O=C(Nc1ccccc1Oc1ccccc1)c1cccc([N+](=O)[O-])c1	-1.9	-43	128	i	0.43	-7	94
Clc1ccc(CN2CCN(/N=C/c3ccco3)CC2)cc1	·	11	114	i	1	6	100
O=C(CNc1ccccc1)N/N=C/c1cc([N+](=O)[O-])ccc1N1CCCC1	-3.1	23	130	i	0.99	3	94
COc1ccc(C(=O)c2c[nH]c(C(=O)N=CN(C)C)c2)cc1	·	·	·	i	0.97	-2	102
O=C(CCCc1cccs1)Nc1ccc2c(c1)OCO2	·	-33	118	i	0.94	-10	104
Clc1ccc(Cc2ccc(Cl)nn2)c(Cl)c1	0.8	-12	74	i	1.1	11	101
COc1ccc(NC(=O)[C@H](COCc2ccccc2)NC(=O)OC(C)(C)C)cc1	3.1	·	·	i	0.84	-10	97
Cc1ccc(OCCN2C(=O)c3ccccc3C2=O)cc1	-2.1	·	·	i	0.93	8	94
c1ccc2oc(SCc3nc4ccccc4s3)nc2c1	-0.7	·	·	i	1	9	102
Cc1nc2ccc(S(=O)(=O)N(C)CC(=O)N3CCc4ccccc43)cc2s1	-1.7	-29	30	i	0.92	-3	97
C=C(C(=O)c1ccccc1)C(CC(=O)c1ccccc1)c1ccccc1 (centres undefined)	-2.5	·	·	i	0.72	6	103
CCCCCC(=O)Nc1ccc(N2CCN(C(=O)c3ccccc3)CC2)cc1	-1.9	35	116	i	0.86	-5	103
CCOC(=O)N1CCC(NC(=O)CS(=O)Cc2nc(-c3ccc(OC)c(OC)c3)oc2C)CC1 (centres undefined)	-1.6	-29	100	i	0.91	5	69
O=C(NCc1ccco1)c1cnn2c(C(F)F)cc(-c3ccccc3)nc12	-0.4	10	83	i	0.79	-1	95
COc1ccc(S(=O)(=O)N(C)c2ccc(C(=O)N3CCC(C(N)=O)CC3)cc2)cc1OC	·	-36	113	i	0.87	-4	95
CCOC(=O)c1nn(-c2ccc(OCC)cc2)c2nc(-c3ccco3)c(C#N)c(=O)n12	0.0	44	108	i	0.8	9	112
OCc1nc2nc(Cl)c(Cl)nc2[nH]1	·	·	·	i	1.1	·	101
Cc1ccc2[nH]c(=O)c3cc(C(=O)N(C)c4ccccc4C)sc3c2c1	·	·	·	i	0.79	·	85
CNc1ncnc2sc(-c3ccccc3)cc12	·	·	·	i	0.83	2	13*
NNC(=O)C(=O)NCCCN1CCOCC1	·	23	121	i	0.94	9	106
